Screens deposited in PubChem by ICCB-Longwood Screening Facility, Harvard Medical School.
Ba CapD inh: CapD enzyme inhibition | purified CapD enzyme, fluorescence intensity read-out; hits give low values; some hits fall short of the stated cut | z-score (test concentration not listed) | hit rate 0.23% among 140,000 | AID 492967;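 active = z-score under -4 in either of two replicates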;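 note: stock transfer was 100 nL into about 40 µL; score is relative to mean and spread of the plate; one replicate is shown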
AID504770: E. coli YBA685 growth inhibition, screen for V. cholerae RctB inhibitors; z-score (test concentration not listed); E. coli YBA685 rctB-dependent plasmid, OD600 growth, 3 h; hits give low values; hit rate 0.27% among 130,000;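 active = z-score under -2 on both plates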;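 note: wells of about 30 µL received 100 nL stock; score is relative to mean and SD of the test wells; the first replicate is given; strong numbers were not always called active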
The depositor's hits bear a star; · = no result given; & = joins results of further samples.

Molecule,Ba CapD inh,AID504770
COc1ccc2c(c1)c(=O)c1ccccc1n2CC(=O)Nc1c(F)cccc1F,1.2,·
COc1ccc(NC(=O)C(C)C2SC(=O)NC2=O)cc1 (centres undefined),46,0.95
COC(=O)C1C2C=CC3(CN(c4ccc(OC)cc4)C(=O)C13)O2 (centres undefined),0.12,-0.75
COc1cc(C2C3=C(CC(C)(C)CC3=O)NC3=C2C(=O)CC(C)(C)C3)ccc1OCc1ccc(Cl)cc1,9.2,·
O=C1NC(=O)/C(=C\c2cc(Br)c(Sc3ccc(Cl)cc3)o2)N1,9,·
O=C(Nc1cc(C(F)(F)F)ccc1-n1cncn1)c1ccc(Cl)cc1,-0.42,0.75
COCc1cc(C)nc2sc(-c3ccc([N+](=O)[O-])o3)c(NC(=O)c3ccccc3)c12,-0.21,·
O=C(NC1CC1)c1ccc2c(c1)N(Cc1ccccc1)CCS2,0.17,0.3
Cc1ccc(-c2[nH]nc3c2C(c2cn[nH]c2-c2ccc(F)cc2)C(C#N)=C(N)O3)cc1 (centres undefined),-0.17,·
COc1ccc(OCC2c3cc(OC)c(OC)cc3CCN2C(=O)Nc2ccc(Cl)cc2)cc1 (centres undefined),-1,-0.4
CSc1nnc2c(n1)OC(c1c(C)nn(-c3ccccc3)c1Cl)Nc1ccccc1-2 (centres undefined),-0.56,·
Cc1cc(I)ccc1N,·,0.95
C(=N\N1CCN(c2ccccn2)CC1)/c1ccccn1,-0.88,-0.95
COC(=O)c1ccccc1NC(=S)Sc1ccc(Cl)cc1,20,-0.95
N#C/C(=C/c1ccc(-c2cc(C(=O)O)ccc2Cl)o1)C(=O)NCCc1c[nH]c2ccccc12,·,-0.45
CC1CCN(C(=O)c2ccc3c(SCC(=O)O)c4c(nc3c2)CCCC4)CC1,0.98,0
COc1ccc2c(CC(=O)NCC3CCCCC3)coc2c1,·,0.15
CCC(C(=O)Nc1cc(C)nn1-c1nc(C)cc(C)n1)c1ccccc1 (centres undefined),·,-0.85
CCCSc1nnc2c3ccccc3n(C)c2n1,-0.62,·
Nc1c(C(=O)N2CCCCC2)sc(=S)n1-c1ccccc1,-0.43,·
Nc1nc2ccc(OC(F)(F)F)cc2s1,1.7,-0.6
O=C(C1=NNCC1c1ccco1)c1ccccc1 (centres undefined),·,-0.2
Nc1ccc(I)nc1,·,0.5
NCC1CCC(C(=O)O)CC1 (centres undefined),1.3&-0.17,-0.4

Gathered by group, those above with two or more sulfur atoms
Molecule,Ba CapD inh,AID504770
COC(=O)c1ccccc1NC(=S)Sc1ccc(Cl)cc1,20,-0.95
Nc1c(C(=O)N2CCCCC2)sc(=S)n1-c1ccccc1,-0.43,·

Continuation:
Molecule,Ba CapD inh,AID504770
N#Cc1ccc(CSc2nc(O)cc(=O)n2C2CCCC2)cc1,·,-0.55
COc1cc([N+](=O)[O-])c(OC)cc1SCc1nnc(-c2ccccc2C)o1,0.23,·
CCOC(=O)c1cc(-c2ccc(OC)c(S(=O)(=O)N3CCCCC3)c2)on1,-0.06,0.15
O=c1cc(N2CCCCC2)c(-c2ccccc2)nn1Cc1ccc(F)cc1,0.32,·
CCN(CC)Cc1cc(NC(=O)OCCC(C)c2ccccc2)ccc1O (centres undefined),-0.28,·
CNC(=O)C12CCC(C)(c3nc4cc(C)c(C)cc4nc31)C2(C)C (centres undefined),2.3,-1.1
O=C(NCc1ccccc1F)c1ccc2c(=O)n(Cc3ccco3)c(=S)[nH]c2c1,·,0.3
N#C/C(=C\c1cc[nH]c1)C(N)=S,·,-0.45
Cc1ccc2[nH]cc(NC(=O)N(C)Cc3ccccc3)c(=O)c2c1,46,-0.9
CC(=O)Nc1sc(C)c(C)c1C(=O)OCC(=O)N1CCOCC1,·,-0.35
Cc1nc(C(C)(C)O)n(-c2ccccc2)n1,0.075,-1.1
Cn1cccc1/C=C1\CC/C(=C\c2cccn2C)C1=O,-0.025,-0.35
Nc1nnc(C(F)(F)C(F)(F)C(F)(F)F)s1,0.4,-0.5
O=C1OC(c2cccs2)=N/C1=C\c1cccc(F)c1,43,-0.2
Cc1ccc(SC2=NS(=O)(=O)c3ccccc32)c(C)c1,0.4,-0.1
CC(C)N1CC(COc2ccc(Br)cc2)OC1=O (centres undefined),-0.42,-1.1
CC(C)N/C=C1\C(=O)c2ccccc2N(C)S1(=O)=O,3,0.05
O=C(OCc1nc2ccccc2s1)C1COc2ccccc2O1 (centres undefined),·,1.8
CS(=O)(=O)N1CCCc2cc(C(=O)CSc3nnc(-c4ccncc4)n3C3CC3)ccc21,·,-1.2
CSc1sc(C(=O)O)c(-c2cccc(C(F)(F)F)c2)c1C#N,0.14,·
COc1ccc(C2CC(c3ccc(C)cc3)=NN2C(=O)c2ccccc2)cc1 (centres undefined),0.31,·
CCCOc1ccc(Cn2c(=O)oc3ccccc32)cc1,-0.3,-0.9
COc1ccc(C2=NN(S(=O)(=O)c3ccc(C)cc3)C(c3ccc(F)cc3)C2)cc1OC (centres undefined),0.09,·
O=C(OCCN=C1NS(=O)(=O)c2ccccc21)c1cccnc1,3.3,-0.15

The results go on.
canonical_smiles	Ba CapD inh	AID504770
CCCn1nc(C)cc1N	·	-0.7
CCOC(=O)C1=C(CN(C)C2CCCCC2)NC(=O)NC1c1cccs1 (centres undefined)	-0.43	-1.2
CC(=O)OC(COc1ccccc1)Cn1nc(C)cc1C (centres undefined)	-0.42	-0.8
CC(=O)Nc1ccc(S(=O)(=O)Nc2cccc3c(=O)[nH][nH]c(=O)c23)cc1	0.67	-0.4
Cc1csc(=Nc2ccccc2F)n1/N=C/c1ccncc1	·	-0.3
c1cnc2c(OCC3CCCN4CCCCC34)cccc2c1 (centres undefined)	1.6	0.3
CCN(C(C)=O)c1nc(CSc2n[nH]c(N)n2)cs1	·	-0.55
CCCCn1c2ccccc2c2nc3ccccc3nc21	-0.69	0.05
Cc1ccc(/C=c2\s/c(=C\C(=O)C(C)(C)C)n(CC(=O)NCc3ccco3)c2=O)s1	·	-0.6
Nc1c(C(=O)OCC2CCCO2)c2nc3ccccc3nc2n1-c1ccc2c(c1)OCO2 (centres undefined)	·	0.55
COC(=O)c1cc2ccc3c(c2oc1=O)CN(Cc1ccccc1)CO3	90	-0.05
COC(=O)COc1ccc2ccccc2c1	1.6	-0.6
O=C(Cn1c(C(=O)NC2CCCCC2)cc2sccc21)c1ccccc1	·	0.35
C[N+](C)(CCO)CCn1cnc2c(N)ncnc21	0.47	-2.7
CCOc1ccc(CSc2n[nH]c(CC)n2)cc1	0.79	1.4
CCC1CCCCN1C(=O)C1CC(c2cc(Cl)c(OC)cc2OC)=NO1 (centres undefined)	1	-1
C=CCc1cccc2cc(C(=O)NC)c(=O)oc12	9.7	-0.4
O=C(Cc1cc(=O)[nH][nH]1)N/N=C/c1cccc2ccccc12	-0.08	1.6
COC(=O)c1c(C)nn(C(=O)c2ccc(C)cc2)c1-c1cc(C)on1	11	-1.1
COC(=O)CN1C(=O)C2(C(C#N)=C(N)Oc3n[nH]c(-c4ccc(Cl)c(Cl)c4)c32)c2ccccc21 (centres undefined)	-0.09	·
O=C(c1cc2ccccc2oc1=O)N1CCc2ccccc2C1	1.3	·
FCCCOc1ccc(-c2nccc(-c3ccc(-c4ccccc4)cc3)n2)cc1	0.88	·
CN1C2C=C3[C@H](C1CC2)[C@@H](c1ccc(Cl)cc1)C(C#N)=C(N)C3(C#N)C#N (some centres undefined)	-1.1	0.9
Cc1nn(-c2ccccc2)c2c1P(=O)(N1CCOCC1)/C(=C1/N(C)c3ccccc3C1(C)C)C=N2 (centres undefined)	·	-0.5
COc1cc(C(F)(F)F)c(C(N)=O)cn1	-0.32	·
COc1ccc(N2CCN(S(=O)(=O)c3ccc(F)c(C(=O)Nc4ccccc4Br)c3)CC2)cc1	-0.025	·
Cc1ccc2c(c1)c1c(n2CC(O)Cn2c(C)cc(C)nc2=O)C(=O)CCC1 (centres undefined)	7.3	-1.4
c1ccc(-c2cn3nc4c(nc3n2)[nH]c2ccccc24)cc1	-0.19	·
CC1CCCC(C)N1C(=O)COC(=O)c1cc(=O)c2ccccc2o1 (centres undefined)	·	-0.5
Cc1ccc(S(=O)(=O)Oc2ccc(CC#N)cc2)cc1	0.35	·

Random excerpt: 6 entries already listed.
canonical_smiles	Ba CapD inh	AID504770
CC1CCCC(C)N1C(=O)COC(=O)c1cc(=O)c2ccccc2o1 (centres undefined)	·	-0.5
COC(=O)c1c(C)nn(C(=O)c2ccc(C)cc2)c1-c1cc(C)on1	11	-1.1
c1ccc(-c2cn3nc4c(nc3n2)[nH]c2ccccc24)cc1	-0.19	·
C=CCc1cccc2cc(C(=O)NC)c(=O)oc12	9.7	-0.4
COC(=O)CN1C(=O)C2(C(C#N)=C(N)Oc3n[nH]c(-c4ccc(Cl)c(Cl)c4)c32)c2ccccc21 (centres undefined)	-0.09	·
COc1ccc(N2CCN(S(=O)(=O)c3ccc(F)c(C(=O)Nc4ccccc4Br)c3)CC2)cc1	-0.025	·

(next part)
canonical_smiles	Ba CapD inh	AID504770
O=c1cc(CSc2nc(NCc3ccc(Cl)cc3)c3ccccc3n2)nc2ccc(Cl)cn12	0.83	·
O=C(CCCOc1ccc(Cl)cc1Cl)NCc1ccncc1	-0.12	1.9
CC1SC(c2ccc(C(C)C)cc2)N(C)C1=O (centres undefined)	·	0.55
O=C1NC(c2ccco2)Nc2sc3c(c21)CCN(Cc1ccccc1)C3 (centres undefined)	2.9	-0.35
Clc1ccccc1C1SCC2Nc3ccccc3CN21 (centres undefined)	54	-0.75
Cn1c(CNc2cccc(Cl)c2)nnc1SCC(=O)OC1CCCCC1	·	0.6
CN1CCc2c(sc3[nH]c(=S)n(-c4ccccc4)c(=O)c23)C1	57	0
Cc1cccc(NC(=O)CN(c2cccc(C(F)(F)F)c2)S(C)(=O)=O)c1	·	-0.5
Nc1nc(-c2ccc(F)cc2)cc(C(F)(F)F)n1	-0.98	-0.4
CCOc1ccccc1N/C(SCc1cc(F)ccc1F)=C(/C#N)C(=O)NCc1ccccc1	46	·
CCC(Sc1nnc(-c2c[nH]c3ccccc23)n1C)C(=O)OC (centres undefined)	1.6	-0.15
COc1ccc(-c2c(C#N)c(SCC(N)=O)nc(C)c2C(=O)Nc2ccccc2)cc1OC	1.2	·
O=C(NNc1ccccc1)c1cc(-c2cccs2)nn1-c1ccccc1	·	1.9
CCOC(=O)c1c(C)[n+]([O-])c2ccc3c(non3O)c12	·	-0.05
CCc1ccc(NC(=O)CN2C(=O)CSC2=O)cc1	·	-0.55
CC(C)(C)OC(=O)C(C)(C)Sc1nnc(N)s1	0.07	·
CCSc1nc2ccccc2nc1SCC	0.23	·
CNS(=O)(=O)c1cccc(C(=O)OCC(=O)N2CCCc3ccccc32)c1	·	-1.6
O=C(O)CC1(CC(=O)N2CCN(c3ccccc3F)CC2)CCCC1	1	·
O=C(Cc1ncc(C(F)(F)F)cc1Cl)NCc1ccc2c(c1)OCO2	-0.11	·
CCN1C(=O)C(=Cc2ccc(N(C)C)cc2)C(=O)N(CC)C1=S	-0.055	-0.45
COc1cc2c(cc1OC)C(c1ccc(Cl)cc1)=NCC2	-1.8	-0.1
C=CCOc1ccc(C2C3=C(CC(C)(C)CC3=O)OC3=C2C(=O)CC(C)(C)C3)cc1	0.065	·
COc1ccc(C(O)c2nccc3cc(OC)c(OC)cc23)cc1OC (centres undefined)	·	-0.55
CCC(=O)NCc1nc2ccccc2n1Cc1ccccc1F	-0.62	2.5
COc1cccc(C(=O)NC(c2ccccc2)c2cc(Cl)c3cccnc3c2O)c1 (centres undefined)	-0.14	·
COc1cc(/C=C2\C(=O)NC(=O)N(c3ccc(Cl)cc3)C2=O)cc(Br)c1O	-1.8	·
CN1C(=O)C(=Cc2ccccc2OCCOc2ccc([N+](=O)[O-])cc2)C(=O)N(C)C1=O	-0.57	·
COc1ccc(C2CC(=O)c3cnc(NCCc4ccccc4)nc3C2)cc1 (centres undefined)	-0.98	2.4
Cc1cc(OC(C)C(=O)N(Cc2ccco2)Cc2ccco2)ccc1Cl (centres undefined)	0.29	-0.55
NC(=O)Nc1ccc(C(=O)Nc2ccc3c(c2)CCC3)cc1	·	0.7
COC(=O)c1c(NC(=O)C(F)(F)F)sc2c1CCCC2	-0.52	-4.5
Cc1ccc(C2=NN(C(=O)CSc3nc4nc(C)cc(C)n4n3)C(c3ccco3)C2)cc1 (centres undefined)	·	-0.05
Cc1onc(-c2ccccc2Cl)c1C(=O)Nc1cccc(C(F)(F)F)c1	0.57	·
CSc1sc(-c2ccon2)c(-c2ccco2)c1C#N	0.83	0.35
CCCCN(C(=O)C1=CC=CN2CCS(=O)(=O)N=C12)c1ccccc1	·	-0.25
CC(C)COc1ccc(C(=O)Nc2ncn[nH]2)cc1	-0.07	-0.7
COc1cccc(CNC(=S)SCC(=O)C(C)(C)C)c1	-0.015	·
O=c1c(-c2cc3ccccc3o2)coc2ccccc12	0.74	-0.45

The list is partial; the hit share may differ from the screen's.
